TRPML1 inh = qHTS for Inhibitors of the Human Mucolipin Transient Receptor Potential 1 (TRPML1); Mucolipin-1 (Homo sapiens), Q9GZU1; TRPML1-inducible cells, Ca2+ dye fluorescence, FDSS; hits give low values; inhibition of EC80 agonist-evoked calcium signal; activity change, negative = inhibition, % (concentration not given with the values); hit rate 0.02% among 390,000; in the data active means activity change below about -50%; inconclusive means about -30% to -50%; inactive means above about -30%;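 also: stimulus is agonist 54-4 at its EC80 concentration; % is scaled to controls: 0 for no effect and ±100 for the full control effect; compound concentration not given in the record; the text of the record puts the active cut at -80%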
Target sequence (Q9GZU1 whole entry, looked up): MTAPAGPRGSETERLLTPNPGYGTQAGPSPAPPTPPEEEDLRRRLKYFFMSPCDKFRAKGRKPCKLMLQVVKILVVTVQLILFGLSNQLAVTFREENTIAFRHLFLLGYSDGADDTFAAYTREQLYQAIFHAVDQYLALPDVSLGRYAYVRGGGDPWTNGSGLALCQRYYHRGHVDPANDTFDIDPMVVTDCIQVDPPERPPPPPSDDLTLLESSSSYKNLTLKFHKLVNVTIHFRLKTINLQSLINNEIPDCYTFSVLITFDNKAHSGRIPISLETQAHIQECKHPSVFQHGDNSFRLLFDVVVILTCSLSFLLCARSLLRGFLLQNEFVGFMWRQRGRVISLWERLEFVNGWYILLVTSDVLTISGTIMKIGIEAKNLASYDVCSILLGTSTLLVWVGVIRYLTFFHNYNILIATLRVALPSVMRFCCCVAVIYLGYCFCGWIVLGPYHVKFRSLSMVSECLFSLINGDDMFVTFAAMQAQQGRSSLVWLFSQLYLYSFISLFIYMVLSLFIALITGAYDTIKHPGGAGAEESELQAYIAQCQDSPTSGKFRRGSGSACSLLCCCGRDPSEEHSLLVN
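Tet-induced TRPML1-DL cells loaded with Ca8 no-wash calcium dye were read kinetically on FDSS. Compound addition was followed by EC80 agonist 54-4 (4 uM final); inhibition was read over 110 s.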
CtBP-E1A blk = qHTS Assay for Inhibitors of the CtBP/E1A Interaction; activity change, % (test concentration not listed); AID 651724, 2012; CtBP / adenovirus E1A interaction (AlphaScreen); hit rate 0.49% among 340,000; AlphaScreen GST-E1A/His-CtBP binding, 1536-well; hits give low values; control for the full effect not named in the record; in the data active means activity change below about -65%; inconclusive means about -30% to -65%; inactive means above about -30%; also: % is scaled to controls: 0 for no effect and ±100 for the full control effect; compound concentration not given in the record
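Protein mix (5X: 125 nM each GST-E1A, His-CtBP) was incubated with pinned compound 2 h at 37 deg C in dark, in 50 mM Tris pH 8.0 buffer with 300 mM NaCl. Glutathione donor and nickel acceptor beads followed; AlphaScreen signal read after 1 h.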
TRPV1 potentiator = HTS Assay for Compounds that Act as Potentiators of the Vanilloid Receptor 1 | potentiation, % at 8.33 µM | TRPV1-expressing cells, Fluo-8 calcium influx, capsaicin EC20 potentiation; host cell line not named in the record; control for the full effect not named in the record | AID 540277, 2011 | hit rate 0.02% among 320,000; active means potentiation above 80%; inconclusive means 30% to 80%; inactive means below 30%; also: 0% is about no effect
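TRPV1-expressing cells were cultured overnight at 35.5C and loaded with Fluo-8 calcium dye for 40 to 90 min at room temperature. After a 10 s baseline, compound was added and calcium influx was read kinetically for 3 min (ex 480/em 520 nm).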
TRPML1 agonist = qHTS for Agonists of the Human Mucolipin Transient Receptor Potential 1 (TRPML1); hit rate 0.12% among 410,000; Mucolipin-1 (Homo sapiens), Q9GZU1; TRPML1-expressing cells, Ca2+ dye fluorescence, FDSS; host cell line not named in the record; reference of the full effect not given here; activation, % (concentration not given with the values); AID 624414, 2012; in the data active = activation above about 50%; inconclusive = about 30% to 50%; inactive = below about 30%; also: 0% is about no effect; the text of the record puts the active cut at 80%
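Kinetic FDSS Ca2+ read in Tet-induced TRPML1-DL cells (ABD Ca8 dye plus quencher, 45-90 min RT loading): baseline, then compound, then 110 s agonist window; EC80 agonist 54-4 at 4uM final added afterwards for a 110 s antagonist window.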
D2 PAM = Beta-Arrestin HTS for Positive Allosteric Modulators of the Human D2 Dopamine Receptor: Potentiators; DiscoveRx D2 beta-arrestin cells, luminescence, 90 min; 100% = 57 uM dopamine signal; potentiation, % (concentration not given with the values); D(2) dopamine receptor (Homo sapiens), P14416; hit rate 0.23% among 360,000; AID 624464, 2012; active = potentiation of 50% or more; inconclusive = 30% to 50%; inactive = 30% or less;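 also: compound concentration not given in the record; tested on top of an EC20 dose of dopamine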
Target sequence (P14416 whole entry, looked up): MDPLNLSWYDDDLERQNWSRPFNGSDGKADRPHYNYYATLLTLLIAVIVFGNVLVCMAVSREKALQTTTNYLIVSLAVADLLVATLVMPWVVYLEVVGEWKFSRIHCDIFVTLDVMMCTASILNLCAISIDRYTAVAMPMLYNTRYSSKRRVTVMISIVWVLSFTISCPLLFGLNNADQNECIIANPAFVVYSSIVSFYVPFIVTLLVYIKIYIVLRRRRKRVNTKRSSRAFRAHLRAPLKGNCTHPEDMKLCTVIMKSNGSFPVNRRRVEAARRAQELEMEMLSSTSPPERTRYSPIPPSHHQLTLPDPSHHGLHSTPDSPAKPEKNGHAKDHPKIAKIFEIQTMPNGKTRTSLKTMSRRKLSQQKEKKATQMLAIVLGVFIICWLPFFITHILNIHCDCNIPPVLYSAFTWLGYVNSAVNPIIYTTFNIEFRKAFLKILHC
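PathHunter beta-arrestin assay in DiscoveRx D2 cells. Compounds were added with an EC20 of dopamine (50 nM final) for 90 min at 37 deg C. Luminescence was read 1 h after detection reagent, with 57 uM dopamine as the EC100 control.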
Six1-Eya2 inh = qHTS Assay for Inhibitors of the Six1/Eya2 Interaction. Homeobox protein SIX1 (Homo sapiens) + Protein phosphatase EYA2 (Homo sapiens), …. AlphaScreen GST-Six1/His-Eya2 binding, biochemical; hits give low values; control for the full effect not named in the record. activity change, % (test concentration not listed). hit rate 0.56% among 360,000; in the data active = activity change below about -65%; inconclusive = about -30% to -65%; inactive = above about -30%; also: % is scaled to controls: 0 for no effect and ±100 for the full control effect; compound concentration not given in the record
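Homogeneous AlphaScreen proximity assay pairing GST-Six1 with His-tagged Eya2 (added as 5X mix: 250 nM and 500 nM) in 50 mM Tris pH 8.0, 300 mM NaCl, 1 mM TCEP. Glutathione donor and nickel acceptor beads; 1 h, 37 °C, dark.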
The depositor's hits bear a star; ? = inconclusive; . = no result given. The list is partial (hit frequency here may not be typical).

SMILES	TRPML1 inh	CtBP-E1A blk	TRPV1 potentiator	TRPML1 agonist	D2 PAM	Six1-Eya2 inh
CN(C)CCOC(=O)c1cn(Cc2ccccc2)c2ccccc12	-0.6	1.6	-2.9	-0.2	-22.7	-14.4
CCCCCCCCCCOC(=O)CCN1CC1	30.0	5.6	.	0.2	4.2	4.4
Cn1c(=O)c2nncnc2n(C)c1=O	-26.3	2.0	6.4	-0.1	-0.4	4.0
COC(=O)[C@@]1(Sc2ccc(C)cc2)CC(=O)N(P(=O)(OC)OC)[C@@H]1c1ccccc1	.	3.2	.	-0.9	.	1.5
Cc1ccc(OCC(=O)N2CCN(C3CCC(c4ccccc4)CC3)CC2)cc1 (stereo not drawn)	-4.3	0.0	-2.4	2.2	-11.1	-17.9
COCc1cc(OC(=O)N(C)C)nc(-c2ccc(C)c(Cl)c2)n1	45.3	6.5	-43.3	0.8	1.5	6.7
C[C@@H]1CC[C@@]2(NC1)O[C@H]1C[C@H]3[C@@H]4CC=C5C[C@@H](O)CC[C@]5(C)[C@H]4CC[C@]3(C)[C@H]1[C@@H]2C	-12.6	0.0	26.1	0.3	-1.6	2.4
CCCn1c(C(=O)c2ccccc2)nc2ccccc21	26.2	97.1	2.7	2.9	-2.8	30.4
C[C@]12CCC(=O)C=C1CC[C@@H]1[C@@H]2CC[C@@]2(C)[C@H]1CC[C@]2(C)O	-2.2	0.7	-4.4	-0.9	-5.2	-5.0
O=P(c1ccccc1)(c1ccccc1)N1CCCCC1	13.3	5.9	-2.1	-1.0	9.3	-3.0
O=S(=O)(NC1CCCC1)OCC(Cl)(Cl)Cl	8.3	1.2	-9.3	0.1	-4.4	3.6
Nc1ccncc1	-6.0	-13.6	2.4	-0.2	-7.8	-2.6
CCCCC1(CC)COP(=O)(OCC(Cl)(Cl)Cl)OC1 (stereo not drawn)	-7.9	1.2	.	0.3	0.1	6.4
COc1cccc(-c2nn(Cc3ccccc3)cc2C(=O)O)c1	-2.2	3.4	-4.0	-0.7	-9.1	-0.5
CC#CP(=O)(OC)C(O)(CF)c1ccccc1 (stereo not drawn)	4.8	6.8	1.9	-0.7	1.2	5.9
CN(C)C1CCc2[nH]c3c(F)cc(F)cc3c2C1 (stereo not drawn)	3.8	3.6	.	0.4	-17.0	-8.0
CC1=CC2OC3CC4OC(=O)C=CC=CC(=O)OCCC(C)C(O)C(=O)OCC2(CC1)C4(C)C31CO1 (stereo not drawn)	-11.0	-1.4	.	-0.3	3.1	2.0
O=C(NC(=S)N1C[C@H]2C[C@H](C1)c1cccc(=O)n1C2)c1ccc(F)cc1	.	-7.0	-30.7	.	-12.4	10.7
COc1ccc(C(=O)Cn2c(NCCCl)nc3ccccc32)cc1	23.2	7.5	-1.9	-0.1	0.3	1.0
CC(C)(C)C(=O)OCC12CCC(O1)C1(C)C(=O)OCC21 (stereo not drawn)	25.0	0.2	-10.4	-0.6	-7.7	-1.6
CN(C)C(=O)CSc1nnc([C@@H](N)Cc2ccccc2)o1	11.5	0.2	1.7	-0.6	-1.1	4.1
COc1ccc(CN2Cc3cnnn3-c3ccccc3C2C#N)cc1 (stereo not drawn)	32.8	-12.4	.	0.1	-8.6	-8.4
Cc1ccc(S(=O)(=O)N(C)C/N=C(\N)N[N+](=O)[O-])cc1	8.0	.	13.8	1.1	-2.7	7.4
Cn1c(O)c(/C=N/c2ccccn2)c(=O)n(C)c1=O	-8.3	5.1	12.6	0.1	2.0	-0.5
COC(=O)c1ccccc1OP1(=O)COc2ccccc2OC1	4.8	-1.3	-0.7	1.3	-7.3	1.3

Part of the list above in order of molecular weight, largest number first:
SMILES	TRPML1 inh	CtBP-E1A blk	TRPV1 potentiator	TRPML1 agonist	D2 PAM	Six1-Eya2 inh
O=C(NC(=S)N1C[C@H]2C[C@H](C1)c1cccc(=O)n1C2)c1ccc(F)cc1	.	-7.0	-30.7	.	-12.4	10.7
CN(C)C(=O)CSc1nnc([C@@H](N)Cc2ccccc2)o1	11.5	0.2	1.7	-0.6	-1.1	4.1
CC#CP(=O)(OC)C(O)(CF)c1ccccc1 (stereo not drawn)	4.8	6.8	1.9	-0.7	1.2	5.9

Following part:
SMILES	TRPML1 inh	CtBP-E1A blk	TRPV1 potentiator	TRPML1 agonist	D2 PAM	Six1-Eya2 inh
CC(O)(CS(=O)(=O)c1cccc(C(F)(F)F)c1)C(=O)Nc1ccc(C(F)(F)F)cc1 (stereo not drawn)	-1.0	3.1	.	0.0	-7.7	-2.3
Cc1ccc(C)c(OCC(=O)N2CCCN(C)CC2)c1	-7.8	9.7	1.3	-0.4	-22.1	1.5
OC(c1ccccc1)(c1ccccc1)c1ccncc1	15.2	.	-2.7	2.1	-6.9	0.5
CCCn1c(C)c(C(=O)c2cccc3ccccc23)c2ccccc21	39.2	2.3	5.3	1.1	4.8	-6.8
Cc1cccc(-n2c(-c3ccco3)nc3ccccc3c2=O)c1C	2.0	3.5	2.4	-0.2	-10.0	3.9
CC(=O)OC1CC(OC2C(O)CC(OC3C(O)CC(OC4CCC5(C)C(CCC6C5CCC5(C)C(C7=CC(=O)OC7)CCC65O)C4)OC3C)OC2C)OC(C)C1OC1OC(CO)C(O)C(O)C1O (stereo not drawn)	-2.4	-6.2	.	-0.1	-14.9	1.7
CN1CCN(Cc2nnc3n2-c2ccc(Cl)cc2C(c2ccccc2)=NC3)CC1	1.1	-13.2	-2.4	-0.4	-28.5	-5.4
O=C1Nc2ccccc2C1Cc1nc2ccccc2c(=O)n1-c1ccccc1 (stereo not drawn)	.	-5.9	2.5	.	-18.9	1.1
OC1/C(=C/c2ccc(F)cc2)N2CCC1CC2 (stereo not drawn)	?	.	1.1	0.3	-10.1	13.3
O=C(O)c1cc(Oc2ccc(C(F)(F)F)cc2Cl)ccc1[N+](=O)[O-]	0.2	2.1	.	-0.2	2.6	-1.3
CC(=O)OC(C)(C)/C=C/C(=O)C(C)(O)C1[C@H](O)C[C@@]2(C)C3CC=C4C(CC[C@@H](O)C4(C)C)[C@]3(CO)C(=O)C[C@]12C (stereo partly drawn)	-1.3	4.0	-4.9	-0.7	-6.6	-1.0
COc1c(C=C2C(=O)NC(=O)NC2=O)c(CCN(C)C(=O)c2ccccc2)cc2c1OCO2	.	6.5	-10.8	.	-16.6	6.4
Cc1ccc(-c2nc3ccc(C)cn3c2CC(=O)N(C)C)cc1	25.2	-12.1	.	0.1	-11.4	-7.6
Cc1cccc(-c2nc3ccccc3c(=O)n2-n2cccc2)c1	-3.1	7.4	2.2	0.5	-8.2	5.6
O=C1NC(=O)C(CCOc2ccccc2)(CCc2ccccc2)C(=O)N1	-17.3	-1.3	.	1.5	-0.6	7.9
O=C1NC(=O)N(Cc2ccco2)C(=O)/C1=C/c1ccc(-c2cccc([N+](=O)[O-])c2)o1	6.9	0.2	2.1	-0.8	-5.2	?
Cc1cc(Br)cn2c(CC(=O)N3CCCCC3)c(-c3ccc(F)cc3)nc12	.	4.6	.	1.6	.	3.8
O=C1Nc2ccccc2/C1=C/c1cnc[nH]1	-0.6	-2.7	1.3	-0.2	0.1	0.0
Cc1ccc(NC(=O)CSc2nnc([C@@H](N)Cc3c[nH]c4ccccc34)o2)c(C)c1	-11.8	-3.8	-4.4	0.0	-3.5	-1.7
CCOC(=O)c1c(C)n(CC(O)CN2CCOCC2)c2cc(Br)c(OC)cc12 (stereo not drawn)	-3.8	0.2	-2.3	0.3	-3.3	-2.3
CCOC(=O)[C@]12Cc3cc(C)ccc3[C@H]1N(Cc1ccccc1)C(=O)c1cc(OC)ccc12	.	-9.3	.	-0.3	.	-7.9
CC[C@H]1CC2CN3CCc4c([nH]c5ccccc45)C(C(=O)OC)(C2)C13 (stereo partly drawn)	.	-20.4	.	.	-8.0	-23.8
CC(C)(C)c1ccc(S(=O)(=O)N2CC3CC(C2)c2cccc(=O)n2C3)cc1 (stereo not drawn)	-1.5	10.9	3.2	0.3	-12.9	-0.5
CC(=NCCc1ccccc1)c1c(O)[nH]c(=O)[nH]c1=O	6.2	3.1	3.0	0.4	-8.0	3.9
N#Cc1ccc(NC(=O)CN2CCCC2)cc1Cl	-11.0	0.0	-4.5	-0.4	2.1	-0.6
Following part:
SMILES	TRPML1 inh	CtBP-E1A blk	TRPV1 potentiator	TRPML1 agonist	D2 PAM	Six1-Eya2 inh
CCC(NC(=O)OC(C)(C)C)C(=O)Oc1cc(C)cc2oc(=O)c3c(c12)CCC3 (stereo not drawn)	-8.0	7.2	-0.7	-1.3	0.2	-2.2
Cc1c(C=O)c2ccccc2n1Cc1cccc(F)c1	-4.2	-1.5	-4.0	1.5	-10.7	0.4
N#CC(C#N)=C(C#N)c1ccc(Nc2ccccc2)cc1	15.6	-8.3	-25.2	0.3	-2.1	-4.8
COC(=O)C1=C(c2ccc(F)cc2OCc2ccccc2)C[C@@H]2CC[C@H]1N2C(=O)NCCOc1ccccc1Cl	59.0	-23.9	9.1	2.8	-8.6	1.2
CC(C)c1ccc(-n2c(O)c(/C=N/NC(=O)c3ccccc3O)c(=O)[nH]c2=S)cc1	48.7	?	10.2	0.8	-6.3	?
COC(=O)CNC(=O)c1cn(CCC#N)nc1-c1ccc(F)cc1	-12.8	15.4	?	-0.7	-5.8	2.7
O=C(Nc1ccc(Cl)cc1C(=O)c1ccccc1Cl)c1ccco1	8.7	0.2	15.6	-0.5	-2.8	-1.1
Cc1nc2ccccc2c(=O)n1-c1ccc(Br)cn1	26.1	-2.7	.	1.2	-5.4	14.8
C/C=C1/CN2C3CC1C(CO)(C(=O)OC)C2Cc1c3n(C)c2ccccc12 (stereo not drawn)	34.5	1.6	6.3	-0.6	-3.8	-4.9
CCOC(=O)[C@]12Cc3cc(Cl)ccc3[C@H]1N(C)C(=O)c1cc(OC)ccc12	.	-8.5	.	-0.6	.	10.2
CCC(c1ccc(C)cc1)N1C(=O)C2C3CCC(O3)C2C1=O (stereo not drawn)	22.1	-24.9	-1.7	0.1	-2.7	-10.6
CCOc1ccccc1CNCCc1ccc2c(c1)OCO2	28.1	0.0	3.0	-0.2	-20.5	-4.3
C[C@]12CC[C@H]3C(CCC4(O)CC(O)CC[C@]34C=O)C1=CC[C@H]2c1ccc(=O)oc1 (stereo partly drawn)	6.6	.	14.8	0.3	-9.3	-6.4
CC(C)(Cl)[N+](=O)[O-]	2.1	-18.6	-3.8	-0.5	-5.9	11.1
CN1CCN2c3ccccc3CC3(C(=O)N(C)C(=O)N(C)C3=O)C2C1 (stereo not drawn)	-17.4	1.4	0.5	0.9	-0.5	-10.9
Cc1ccsc1C(=O)C1CCCN(Cc2cnn(C(C)C)c2)C1 (stereo not drawn)	15.0	.	6.2	0.0	-23.3	6.7

Compound activity deposited in PubChem BioAssay by National Center for Advancing Translational Sciences (NCATS).
